# Mtb MenB inh = Mtb MenB enzyme inhibition | P9WNP5 | MenB enzyme assay, absorbance read-out; some hits fall short of the stated cut | inhibition, %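 (about 12 µg/mL by stock and volumes)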 | 100,000 tested, 0.43% active | AID 540299;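 active means mean of two replicates above 30%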;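 further: 0% = no compound and 100% = wells with inactive enzyme; the first replicate is given; strong numbers were not always called active; inactives centre near -10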
# Target sequence (P9WNP5 whole entry, looked up): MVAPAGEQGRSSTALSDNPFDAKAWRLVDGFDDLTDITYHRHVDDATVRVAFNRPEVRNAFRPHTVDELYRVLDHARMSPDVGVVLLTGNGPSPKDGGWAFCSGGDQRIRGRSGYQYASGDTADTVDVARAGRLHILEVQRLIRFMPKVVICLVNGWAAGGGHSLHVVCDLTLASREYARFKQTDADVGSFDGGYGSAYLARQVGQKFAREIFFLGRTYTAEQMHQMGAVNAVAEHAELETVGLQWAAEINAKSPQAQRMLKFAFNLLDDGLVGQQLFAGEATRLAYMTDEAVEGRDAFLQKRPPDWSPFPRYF
# MbtI inh = blocks the Mycobacterium tuberculosis siderophore enzyme MbtI; P9WFX0; purified MbtI enzyme, fluorescence intensity read-out; inhibition, %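 (about 17 µg/mL by stock and volumes)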; 100,000 tested, 0.89% active;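 active means above 50% in both replicates, above 80% if mildly self-fluorescent; inactive means the rest, strongly fluorescent compounds included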;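 further: 0% = mean of negative and 100% = mean of positive controls; one replicate is shown; some compounds called inactive have numbers as strong as hits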
# Polio RdRp inh = poliovirus RNA polymerase inhibition; poliovirus polymerase elongation, fluorescence polarization; hits give low values; % elongation, % (compound at 16.7 µg/mL); 150,000 tested, 0.66% active; in the data active means % elongation below about 90%; further: some results filed as inactive read as strong as hits
# Target sequence (P03300 1749-2209 limits assumed): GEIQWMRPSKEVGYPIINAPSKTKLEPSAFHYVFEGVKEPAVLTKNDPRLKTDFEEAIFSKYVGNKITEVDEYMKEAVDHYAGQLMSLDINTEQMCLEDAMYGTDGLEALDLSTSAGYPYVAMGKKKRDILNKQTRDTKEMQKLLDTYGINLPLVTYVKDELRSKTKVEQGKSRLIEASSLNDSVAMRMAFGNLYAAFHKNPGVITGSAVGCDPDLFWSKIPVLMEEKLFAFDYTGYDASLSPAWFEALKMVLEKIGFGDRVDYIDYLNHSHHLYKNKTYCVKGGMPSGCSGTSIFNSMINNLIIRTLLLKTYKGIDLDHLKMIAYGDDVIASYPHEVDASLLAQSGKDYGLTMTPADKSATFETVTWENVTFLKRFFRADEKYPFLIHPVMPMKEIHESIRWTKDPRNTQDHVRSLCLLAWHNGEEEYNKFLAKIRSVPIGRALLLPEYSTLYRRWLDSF
# Polio RdRp inh intensity = also measured in Polio RdRp inh; calls as there; % elongation; measured here: total intensity read-out; formula for this scale not given here;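 total fluorescence in place of polarization; lower means less elongation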
# Active calls of the source: *; nt = no result given.
1	O=C1NC(c2ccccc2)(C(F)(F)F)N=C2SC3=C(CCCC3)N12 (stereo not given)
2	O=C(CC1SC(N2CCCCC2)=NC1=O)Nc1cccc(Cl)c1Cl (stereo not given)
3	C=Cn1cc[n+](CC(=O)c2ccc(Cl)cc2)c1
4	O=C(Nc1ccc(F)cc1)c1ccccc1NS(=O)(=O)N1CCCC1
5	COc1cc(C2CC(=O)NC(SCC(=O)Nc3ccc(C)c(C)c3)=C2C#N)cc(OC)c1OC (stereo not given)
6	O=C(NC1CCCCC1)c1ccc(-n2ccc3ccccc32)s1
7	O=C(CSc1nnc2c(n1)Nc1ccccc1S2)N1CCN(Cc2ccccc2)CC1
8	Cn1nc(C(=O)N(Cc2ccco2)C2CCCCC2)c2c1-c1ccccc1OC2
9	CC(CCc1ccccc1)NC(=O)c1ccccc1C(=O)O (stereo not given)
10	COc1ccc(CN(C)C(=O)CN2CCCCC2C)c(OC)c1OC (stereo not given)

compound no.	1	2	3	4	5	6	7	8	9	10
Mtb MenB inh	-13	2	-6	-2	-15	-18	3	4	9	-15
MbtI inh	-16	-2	1	nt	9	102	1	-23	-8	1
Polio RdRp inh	107	nt	102	97	100	nt	93	101	103	99
Polio RdRp inh intensity	99	nt	97	94	102	nt	114	101	107	106

11	CNC(=O)CN(Cc1ccccc1)S(=O)(=O)c1ccccc1
12	CC(Oc1ccc(Br)cc1)C(=O)N=c1sccn1C (stereo not given)
13	COc1ccc(/C=C/C(=O)Nc2c(C(N)=O)oc3ccccc23)cc1OC
14	COc1ccc(NC2CCCCC2NS(=O)(=O)c2ccccc2)cc1 (stereo not given)
15	Cc1c(O)ccc(C(=O)Cc2ccc(F)cc2)c1O
16	COC(=O)c1ccsc1NC(=O)CC1SC(N)=NC1=O (stereo not given)
17	O=c1cccccc1NC1CCCCC1
18	COc1nc(Nc2ccc(Cl)cc2)nc(NC2CCCCC2)n1
19	CCCCSc1nc2c(c(C(F)(F)F)c1C#N)CCC2
20	CC1(C)Cc2ccccc2C(=NCCC(=O)O)N1

compound no.	11	12	13	14	15	16	17	18	19	20
Mtb MenB inh	-31	0	-10	6	-34	4	-341	-22	2	30
MbtI inh	-10	-3	-43	-5	-12	9	16	-1	3	-3
Polio RdRp inh	102	101	103	100	100	nt	100	103	101	101
Polio RdRp inh intensity	101	103	106	103	104	nt	101	99	101	104

21	CN1CCN(c2nc(-c3ccccc3)cc(-c3ccc(Br)cc3)n2)CC1
22	CC12COC3(C#N)CC1CCC32C (stereo not given)
23	CCCCN(C)S(=O)(=O)c1cc2c3c(c1)CCC(=O)N3CCC2
24	CCOC(=O)C1CCN(Cc2ccccc2)CC1
25	N#CC(Cc1ccccc1)Sc1nnc(-c2cccs2)n1Cc1ccccc1 (stereo not given)
26	CC1CCCN(CC(=O)O)C1 (stereo not given)
27	CCc1c(C#N)c(SCC(=O)c2ccc3c(c2)OCO3)nc2c1C(=O)CC(C)(C)C2
28	CC1CC(C)CN(C(=O)Cc2c(C(=O)O)[nH]c3ccc(Cl)cc23)C1 (stereo not given)
29	Nc1nncn1C(=O)CCCN1C(=O)c2ccccc2C1=O
30	COc1ccc(-n2ncc3c(=O)n(CC(=O)NC(C)C)cnc32)cc1

compound no.	21	22	23	24	25	26	27	28	29	30
Mtb MenB inh	-34	20	-13	-1	-25	-21	-14	4	-28	1
MbtI inh	-12	1	8	-18	30	4	9	14	-20	1
Polio RdRp inh	103	101	103	99	99	102	104	99	101	100
Polio RdRp inh intensity	103	102	106	102	103	100	108	104	103	98

31	CCNc1nc(-c2ccc(OC)cc2OC)cs1
32	Cc1nc(N=C(N)N)nc2cc3c(cc12)OCO3
33	COc1ccc(-n2nnc3c(=O)n(Cc4cccc(C(F)(F)F)c4)cnc32)cc1
34	COc1ccc(S(=O)(=O)N(C(=O)C(C)C)c2ccc3oc(=O)sc3c2)cc1
35	COc1ccccc1C1(C#N)CCOCC1
36	CCNC(=O)C1CCCN1C(=O)OCC(C)C (stereo not given)
37	COc1ccc(N2CCN(S(=O)(=O)c3cc(Br)cc4c3N(C(C)=O)C(C)C4)CC2)cc1 (stereo not given)
38	OC(CN1c2ccccc2Sc2ccccc21)Cn1nnc2ccccc21 (stereo not given)
39	CCc1ccc(CNC(=O)c2ccc3c(c2)ncn3C2CCCC2)cc1
40	CC(=O)N1CCN(S(=O)(=O)c2cccc(C(=O)OCc3csc(-c4ccccc4)n3)c2)CC1

compound no.	31	32	33	34	35	36	37	38	39	40
Mtb MenB inh	-3	27	-20	1	-11	-18	-16	-37	-15	-4
MbtI inh	-9	18	-3	-3	0	-8	-4	-6	-7	-7
Polio RdRp inh	102	98	103	101	100	102	100	100	102	104
Polio RdRp inh intensity	103	102	107	103	101	100	102	103	106	108

41	Cc1ccc(S(=O)(=O)/N=C(/c2ccccc2)N2CCOCC2)cc1
42	CCC(=O)Nc1sc(C(=O)N2CCCCC2)c(C)c1C#N
43	CCOC(=O)c1[nH]c(C)c(Cc2ccc(OCC)cc2)c1C
44	CC1Cc2cc(C(=O)CSc3nnc(-c4ccco4)n3-c3ccccc3)ccc2N1S(C)(=O)=O (stereo not given)
45	Cc1cc(NC(=O)CCN2C(=O)C3C4C=CC(C4)C3C2=O)c(C)cc1Br (stereo not given)
46	Fc1cnc(N2CCOCC2)nc1N1CCc2ccccc21
47	CCOc1cc(C=C2C(=O)NC(=S)NC2=O)ccc1OCCOc1ccc(C(C)CC)cc1 (stereo not given)
48	CN(C)C=Nc1ccc(OCc2ccccc2)cc1
49	CC1=C(C(=O)Nc2ccccc2)Oc2ccccc2N1
50	Cn1cnnc1Sc1ccc(Cl)cc1NC(=O)C1CCCCC1

compound no.	41	42	43	44	45	46	47	48	49	50
Mtb MenB inh	-13	-4	-18	-25	-17	-12	-49	2	-2	-15
MbtI inh	1	nt	-7	3	0	16	27	-5	nt	44
Polio RdRp inh	104	100	103	108	100	101	105	104	107	96
Polio RdRp inh intensity	101	99	103	123	107	104	103	102	108	95

51	Cc1ccc(CNC(=O)C2c3ccccc3Oc3ccccc32)cc1
52	CCCCSc1nc(O)c(CCC(C)C)c(=O)[nH]1
53	CSc1ncc(Cl)c(C(=O)N2CCN(c3cccc(Cl)c3)CC2)n1
54	CCOC(=O)c1nc(-c2ccccc2)sc1-c1ccnn1C(=O)NC(C)C
55	O=C(CSc1nc2ccccc2c(=O)n1-c1ccccc1)N1CCC1
56	S=c1[nH]c(=S)c2cnc(N3CCc4ccccc43)nc2[nH]1
57	COc1ccccc1C(=O)NCc1ccc2[nH]c(C)cc2c1
58	COc1ccc(-n2c(=O)c(CCC(=O)NC3CC3)nc3ccccc32)cc1
59	C=CCN(c1ccccc1C1=N/C(=C\c2ccc(C)cc2)C(=O)O1)S(=O)(=O)c1ccc(C)cc1
60	CN1CCCC(OC(=O)c2ccc(C#N)cc2)C1 (stereo not given)

compound no.	51	52	53	54	55	56	57	58	59	60
Mtb MenB inh	-6	-16	-19	-14	13	2	-11	-4	-75	nt
MbtI inh	-11	0	-6	-27	1	6	4	-3	-4	-4
Polio RdRp inh	103	102	104	103	105	96	102	115	106	102
Polio RdRp inh intensity	108	101	104	98	112	130	103	124	101	105

# Ordered by SMILES length (ascending): some entries from above
26	CC1CCCN(CC(=O)O)C1 (stereo not given)
22	CC12COC3(C#N)CC1CCC32C (stereo not given)
35	COc1ccccc1C1(C#N)CCOCC1
31	CCNc1nc(-c2ccc(OC)cc2OC)cs1
46	Fc1cnc(N2CCOCC2)nc1N1CCc2ccccc21
3	C=Cn1cc[n+](CC(=O)c2ccc(Cl)cc2)c1
6	O=C(NC1CCCCC1)c1ccc(-n2ccc3ccccc32)s1
43	CCOC(=O)c1[nH]c(C)c(Cc2ccc(OCC)cc2)c1C
56	S=c1[nH]c(=S)c2cnc(N3CCc4ccccc43)nc2[nH]1
21	CN1CCN(c2nc(-c3ccccc3)cc(-c3ccc(Br)cc3)n2)CC1
58	COc1ccc(-n2c(=O)c(CCC(=O)NC3CC3)nc3ccccc32)cc1
45	Cc1cc(NC(=O)CCN2C(=O)C3C4C=CC(C4)C3C2=O)c(C)cc1Br (stereo not given)

compound no.	26	22	35	31	46	3	6	43	56	21	58	45
Mtb MenB inh	-21	20	-11	-3	-12	-6	-18	-18	2	-34	-4	-17
MbtI inh	4	1	0	-9	16	1	102	-7	6	-12	-3	0
Polio RdRp inh	102	101	100	102	101	102	nt	103	96	103	115	100
Polio RdRp inh intensity	100	102	101	103	104	97	nt	103	130	103	124	107

33	COc1ccc(-n2nnc3c(=O)n(Cc4cccc(C(F)(F)F)c4)cnc32)cc1
5	COc1cc(C2CC(=O)NC(SCC(=O)Nc3ccc(C)c(C)c3)=C2C#N)cc(OC)c1OC (stereo not given)
40	CC(=O)N1CCN(S(=O)(=O)c2cccc(C(=O)OCc3csc(-c4ccccc4)n3)c2)CC1

compound no.	33	5	40
Mtb MenB inh	-20	-15	-4
MbtI inh	-3	9	-7
Polio RdRp inh	103	100	104
Polio RdRp inh intensity	107	102	108

# Remaining list, next part
61	CC(C)(CO)NC(=O)c1cc(-c2ccccc2F)no1
62	O=C(NCCO)c1cc2ccccc2c(=O)s1
63	N#Cc1ccccc1COC(=O)c1ccc2c(c1)OCO2
64	COC(=O)c1cc(-c2ccc(OC)c(OC)c2)nc2ccccc12
65	CCCCn1c(CN2CCN(CC)CC2)nc2c1c(=O)[nH]c(=O)n2C
66	CN(C)S(=O)(=O)c1ccc2oc(SCC(=O)Nc3ccccc3F)nc2c1
67	Nc1nc(N)nc(SCC(=O)N2N=C3/C(=C/c4ccccc4)CCCC3C2c2ccccc2)n1 (stereo not given)
68	COC(=O)CSc1nnc(CNC(=O)c2cccs2)n1-c1cccc(C)c1
69	Fc1ccc(-c2nc3cc(N=C/C=C/c4ccc5c(c4)OCO5)ccc3o2)cc1
70	CC1(C)C/C(=N\NC(=O)CC#N)CCO1

compound no.	61	62	63	64	65	66	67	68	69	70
Mtb MenB inh	-4	-14	-7	-7	-14	-22	-1	3	-23	-1
MbtI inh	-6	1	1	13	-17	-14	76	0	11	-1
Polio RdRp inh	101	102	103	102	100	101	108	104	104	105
Polio RdRp inh intensity	102	95	106	99	99	108	112	97	109	101

71	CC1CCN(C(=O)COC(=O)COc2ccc(Cl)cc2)CC1
72	N#Cc1cc2c(nc1SCC(=O)c1ccccc1)CCCC2
73	NC(=O)C1(N2CCCCC2)CCN(C(=S)NCc2ccco2)CC1
74	COc1cccc(C(=O)Nc2ccccc2N2CCCCC2)c1
75	Cc1ccc(CS(=O)(=O)CC(O)COc2ccc(F)cc2)cc1 (stereo not given)
76	CCOC(=O)C1CCCN(C(=O)C2c3cc(OC)c(OC)cc3C(=O)N(C)C2c2ccc(OC)cc2)C1 (stereo not given)
77	NNC(=O)C1CC2CC1CC2C(=O)NN (stereo not given)
78	COc1ccc(S(=O)(=O)NCCc2cn3cccc(C)c3n2)cc1OC
79	CCSc1ccc(NC(=O)Cc2ccccc2)cc1
80	Cc1cc(C)nc(Nc2n[nH]c(-c3ccccc3C)n2)n1

compound no.	71	72	73	74	75	76	77	78	79	80
Mtb MenB inh	nt	-4	-15	2	15	-14	-5	0	-13	-7
MbtI inh	-8	nt	1	3	4	10	nt	-4	-9	-3
Polio RdRp inh	103	101	102	104	102	100	111	102	102	99
Polio RdRp inh intensity	106	110	102	106	106	102	111	107	102	99

81	Cc1ccc(NC(=O)C2COc3ccccc3O2)cc1Cl (stereo not given)
82	O=c1oc2ccccc2c2c1Sc1ccccc1N2
83	COc1ccc(CN(C)Cc2ccccc2)cc1
84	CC(C)c1ccc(N2CC(O)=C(c3nc4ccccc4n3C)C2=N)cc1
85	O=C(CSc1cccc[n+]1[O-])NCCCc1ccccc1
86	Cc1cccc(C)c1Nc1c(CN2C(=O)c3ccccc3C2=O)nc2ccc(Br)cn12
87	CSc1nc(-c2ccco2)nn1C(=O)c1ccc(C)cc1
88	O=C1CCCC2=C1C(c1ccco1)c1c([nH]n(-c3ccccc3)c1=O)N2 (stereo not given)
89	CCC(C)NC(=O)C1CCN(S(=O)(=O)c2ccc3nc(-c4ccccc4)[nH]c3c2)CC1 (stereo not given)
90	CCN1C(=O)/C(=C2/C=Cc3ccccc3N2C)OC1=S
91	CC(NC(=O)c1ccccc1)c1nc(-c2ccccc2)no1 (stereo not given)
92	Cc1cc(F)ccc1S(=O)(=O)Nc1ccccc1C(=O)OCC(=O)N1CCCC1=O

compound no.	81	82	83	84	85	86	87	88	89	90	91	92
Mtb MenB inh	nt	-11	-10	6	nt	-17	-35	-22	-25	-59	2	6
MbtI inh	-14	7	5	23	-5	-17	6	43	-3	-4	-8	18
Polio RdRp inh	102	98	98	101	103	103	101	100	100	104	102	103
Polio RdRp inh intensity	107	98	101	98	104	106	101	101	96	102	103	98

# Complete entries as entered above. Screens in order: Mtb MenB inh | MbtI inh | Polio RdRp inh | Polio RdRp inh intensity
# COc1ccc(/C=C/C(=O)Nc2c(C(N)=O)oc3ccccc23)cc1OC across the screens: -10 | -43 | 103 | 106
# CCCCn1c(CN2CCN(CC)CC2)nc2c1c(=O)[nH]c(=O)n2C across the screens: -14 | -17 | 100 | 99

# High-throughput results as filed in PubChem.
